UUG fidelity: yeast start codon fidelity modulation | S. cerevisiae UUG-firefly luciferase reporter, luminescence/redox ratio | activity score, % at 18.7 µM | 350,000 compounds, 0.13% hits;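 active means replicate mean at a twofold rise or more, about +100% in these data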;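 further: firefly luciferase made from a UUG start codon reports start codon fidelity; reporter light over untreated wells divided by growth signal over untreated wells; some hits fall short of that in this replicate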
* hit, by the source's call.

How did CC(C)NC(=O)Nc1ccc2c(c1)C(=O)N([C@@H](C)CO)C[C@H](C)[C@@H](CN(C)Cc1ccncc1)O2 do in these assays?
UUG fidelity: -2

How did CC(C)NC(=O)N1CCCCN2[C@@H](CO)[C@H](c3ccc(C#Cc4ccccc4F)cc3)[C@@H]2C1 do in these assays?
UUG fidelity: 5

How did O=C(C1CCCCC1)N1[C@@H]2CN(S(=O)(=O)c3ccccc3)c3ccccc3[C@@H]2[C@@H]1CO do in these assays?
UUG fidelity: 19

How did CCC(=O)N1[C@@H](CO)[C@@H]2c3ccccc3N(C(=O)Nc3cccc(Cl)c3)C[C@@H]21 do in these assays?
UUG fidelity: -12

Results for CC(C)NC(=O)N(C)C[C@H]1Oc2c(NC(=O)c3cnccn3)cccc2C(=O)N([C@@H](C)CO)C[C@@H]1C ?
UUG fidelity: 0

How did Cc1noc(C)c1S(=O)(=O)Nc1cccc2c1O[C@@H](CN(C)C(=O)Nc1ccc3c(c1)OCO3)[C@@H](C)CN([C@H](C)CO)C2=O do in these assays?
UUG fidelity: -2

How did CN1C[C@H]2[C@@H](c3ccccc31)[C@H](CO)N2Cc1ccccc1F do in these assays?
UUG fidelity: 24

What do the screens show for `C[C@H](O)C#Cc1ccc([C@H]2[C@H]3CN(C(=O)c4ccc(F)cc4)CCCCN3[C@H]2CO)cc1`?
UUG fidelity: 5

How did COCC(=O)Nc1ccc2c(c1)OC[C@@H](C)N(C(=O)Cc1ccccn1)C[C@H](C)[C@H](OC)CN(C)C2=O do in these assays?
UUG fidelity: -2

How did COc1ccc(-c2ccc3c(c2)[C@H]2[C@H](CCN2C(=O)c2ccc4c(c2)OCO4)[C@H](CO)N3)cc1 do in these assays?
UUG fidelity: -12

How did CCC(=O)N1[C@H](CO)[C@H]2c3ccccc3N(C(=O)c3ccncc3)C[C@H]21 do in these assays?
UUG fidelity: -6

Results for COc1ccc(NC(=O)N(C)C[C@H]2Oc3ccc(NS(=O)(=O)c4cccs4)cc3C(=O)N([C@@H](C)CO)C[C@H]2C)cc1 ?
UUG fidelity: 11

How did CO[C@@H]1CN(C)C(=O)c2ccc(NC(=O)c3nc4ccccc4s3)cc2OC[C@@H](C)N(Cc2ccccc2)C[C@H]1C do in these assays?
UUG fidelity: -8

What do the screens show for `CCS(=O)(=O)Nc1ccc2c(c1)C(=O)N(C)C[C@@H](OC)[C@@H](C)CN(CC1CCCCC1)[C@H](C)CO2`?
UUG fidelity: -6

What do the screens show for `CO[C@@H]1CN(C)C(=O)c2cc(NC(=O)c3nc4ccccc4s3)ccc2OC[C@@H](C)NC[C@H]1C`?
UUG fidelity: 7

Results for C[C@@H]1CN([C@@H](C)CO)C(=O)Cc2cc(NS(=O)(=O)c3cn(C)cn3)ccc2O[C@H]1CN(C)C ?
UUG fidelity: 12

How did C[C@@H]1CN([C@@H](C)CO)C(=O)Cc2cc(NC(=O)NC3CCCCC3)ccc2O[C@@H]1CN(C)C(=O)Nc1ccc(F)cc1 do in these assays?
UUG fidelity: 28

How did CCC(=O)Nc1ccc2c(c1)C(=O)N(C)C[C@@H](OC)[C@H](C)CN(C(=O)C1CC1)[C@@H](C)CO2 do in these assays?
UUG fidelity: 4

Results for C[C@@H]1CN([C@H](C)CO)C(=O)c2cccc(NC(=O)NC3CCCCC3)c2O[C@@H]1CN(C)S(=O)(=O)c1ccccc1 ?
UUG fidelity: 3

How did COc1ccc(S(=O)(=O)N(C)C[C@H]2Oc3ccc(NC(=O)Cc4ccccc4)cc3C(=O)N([C@@H](C)CO)C[C@H]2C)cc1 do in these assays?
UUG fidelity: 12

3 entries drawn at random from the list so far:
How did Cc1noc(C)c1S(=O)(=O)Nc1cccc2c1O[C@@H](CN(C)C(=O)Nc1ccc3c(c1)OCO3)[C@@H](C)CN([C@H](C)CO)C2=O do in these assays?
UUG fidelity: -2

How did COCC(=O)Nc1ccc2c(c1)OC[C@@H](C)N(C(=O)Cc1ccccn1)C[C@H](C)[C@H](OC)CN(C)C2=O do in these assays?
UUG fidelity: -2

How did CC(C)NC(=O)N1CCCCN2[C@@H](CO)[C@H](c3ccc(C#Cc4ccccc4F)cc3)[C@@H]2C1 do in these assays?
UUG fidelity: 5

In the list so far, these contain an aryl methoxy group.
How did COc1ccc(-c2ccc3c(c2)[C@H]2[C@H](CCN2C(=O)c2ccc4c(c2)OCO4)[C@H](CO)N3)cc1 do in these assays?
UUG fidelity: -12

Results for COc1ccc(NC(=O)N(C)C[C@H]2Oc3ccc(NS(=O)(=O)c4cccs4)cc3C(=O)N([C@@H](C)CO)C[C@H]2C)cc1 ?
UUG fidelity: 11

How did COc1ccc(S(=O)(=O)N(C)C[C@H]2Oc3ccc(NC(=O)Cc4ccccc4)cc3C(=O)N([C@@H](C)CO)C[C@H]2C)cc1 do in these assays?
UUG fidelity: 12

(next part)
What do the screens show for `COCC#Cc1ccc([C@H]2[C@@H](CO)N3CCCCN(Cc4cccnc4)C[C@@H]23)cc1`?
UUG fidelity: 0

What do the screens show for `O=C(Nc1cccc(F)c1)N1CCCCN2[C@H](C1)[C@H](c1ccc(C#CC3CC3)cc1)[C@@H]2CO`?
UUG fidelity: 19

How did COc1ccc(NC(=O)N(C)C[C@H]2Oc3c(NC(=O)Nc4cccc5ccccc45)cccc3C(=O)N([C@H](C)CO)C[C@@H]2C)cc1 do in these assays?
UUG fidelity: 1

What do the screens show for `C[C@H](CO)N1C[C@H](C)[C@H](CN(C)S(=O)(=O)c2ccc(F)cc2)Oc2ccc(NC(=O)C3CCCCC3)cc2C1=O`?
UUG fidelity: -1

Results for Cc1ccc(S(=O)(=O)Nc2ccc3c(c2)CC(=O)N([C@H](C)CO)C[C@@H](C)[C@@H](CN(C)C)O3)cc1 ?
UUG fidelity: -15

What do the screens show for `CCNC(=O)C[C@H]1CC[C@H]2[C@@H](COC[C@H](O)CN2C(=O)Nc2c(C)noc2C)O1`?
UUG fidelity: -8

What do the screens show for `Cc1ccccc1S(=O)(=O)N1C[C@@H](O)COC[C@@H]2O[C@H](CC(=O)N3CCCCC3)CC[C@H]21`?
UUG fidelity: 8

What do the screens show for `C[C@@H]1CN([C@H](C)CO)C(=O)c2cccc(NC(=O)C3CCCCC3)c2O[C@H]1CN(C)S(=O)(=O)c1ccc(F)cc1`?
UUG fidelity: 7

What do the screens show for `O=C(Nc1ccccc1F)N1CCCCN2[C@H](C1)[C@H](c1ccc(C#Cc3cccnc3)cc1)[C@@H]2CO`?
UUG fidelity: 23

What do the screens show for `Cc1noc(C)c1NC(=O)N(C)C[C@H]1Oc2ccc(NS(=O)(=O)c3cccs3)cc2C(=O)N([C@@H](C)CO)C[C@H]1C`?
UUG fidelity: -6

What do the screens show for `C[C@@H]1CN([C@@H](C)CO)C(=O)c2cccc(NC(=O)Nc3ccc(F)cc3)c2O[C@@H]1CN(C)Cc1ccc(C(F)(F)F)cc1`?
UUG fidelity: -2

How did CC=Cc1ccc2n(c1=O)C[C@H]1[C@H](CO)[C@@H](C(=O)NCC3CC3)N(Cc3ccncc3)[C@@H]21 (mixture of isomers) do in these assays?
UUG fidelity: -2

Results for O=C(c1cccnc1)N1C[C@H]2[C@@H](c3ccccc31)[C@H](CO)N2CC1CCCC1 ?
UUG fidelity: 53

How did CCCN1C[C@@H](C)[C@@H](OC)CN(C)C(=O)c2ccc(NC(=O)c3ccccc3)cc2OC[C@H]1C do in these assays?
UUG fidelity: 0

Results for CCNC(=O)C[C@@H]1CC[C@H]2[C@@H](COC[C@@H](O)CN2C(=O)C2CCCC2)O1 ?
UUG fidelity: -9

How did COCCNC(=O)[C@@H]1[C@@H](CO)[C@@H]2Cn3c(ccc(-c4ccccc4F)c3=O)[C@@H]2N1C(=O)C1CC1 do in these assays?
UUG fidelity: -17

What do the screens show for `CNC[C@H]1Oc2ccc(NS(=O)(=O)c3ccc(F)cc3)cc2CC(=O)N([C@H](C)CO)C[C@H]1C`?
UUG fidelity: 1

Results for C[C@H]1CN([C@@H](C)CO)C(=O)Cc2cc(NS(=O)(=O)c3ccccc3)ccc2O[C@@H]1CN(C)Cc1ccc(C(F)(F)F)cc1 ?
UUG fidelity: 6

Results for C[C@H](CO)N1C[C@H](C)[C@@H](CN(C)Cc2ccncc2)Oc2ccc(NC(=O)Nc3ccc(C(F)(F)F)cc3)cc2C1=O ?
UUG fidelity: -2

What do the screens show for `C[C@H]1CN([C@@H](C)CO)C(=O)c2cc(NS(=O)(=O)c3cn(C)cn3)ccc2O[C@H]1CN(C)S(=O)(=O)c1ccc(F)cc1`?
UUG fidelity: 7

How did COc1cccc(S(=O)(=O)N2CC[C@@H]3[C@H](CO)Nc4ccc(Br)cc4[C@@H]32)c1 do in these assays?
UUG fidelity: -6

Results for Cc1ccccc1-c1ccc([C@H]2[C@@H](CO)N3CCCCN(C(=O)c4cccnc4)C[C@H]23)cc1 ?
UUG fidelity: -12

Results for COc1ccccc1C(=O)N1C[C@@H]2[C@H](c3ccccc31)[C@@H](CO)N2C(=O)C1CCCC1 ?
UUG fidelity: 0

What do the screens show for `C[C@H](CO)N1C[C@H](C)[C@H](CN(C)C)Oc2ccc(NS(=O)(=O)c3cn(C)cn3)cc2C1=O`?
UUG fidelity: 11

How did CO[C@H]1CN(C)C(=O)c2ccc(NC(=O)c3nc4ccccc4s3)cc2OC[C@@H](C)N(Cc2cncnc2)C[C@@H]1C do in these assays?
UUG fidelity: -3

How did CN(C)C(=O)[C@H]1[C@H](CO)[C@H]2Cn3c(ccc(C4=CCCCC4)c3=O)[C@@H]1N2Cc1cccnc1 do in these assays?
UUG fidelity: -9

What do the screens show for `C[C@H](CO)N1C[C@H](C)[C@H](CN(C)S(=O)(=O)c2ccc(C#N)cc2)Oc2ncc(-c3cc4ccccc4o3)cc2C1=O`?
UUG fidelity: 4

What do the screens show for `C[C@H](CO)N1C[C@H](C)[C@H](CN(C)C(=O)Nc2ccccc2)Oc2ccc(NC(=O)Nc3ccc(F)cc3)cc2CC1=O`?
UUG fidelity: -4

How did CCC(=O)N1[C@H](CO)[C@@H]2c3ccccc3N(C(=O)c3ccc4c(c3)OCO4)C[C@@H]21 do in these assays?
UUG fidelity: -6

What do the screens show for `O=S(=O)(c1ccccc1F)N1CC[C@H]2[C@H](CO)Nc3ccc(C4=CCCCC4)cc3[C@H]21`?
UUG fidelity: -3

How did CC(=O)N1[C@H](CO)[C@@H](c2ccccc2)[C@@H]1CN(C(=O)c1ccc(F)cc1)C(C)C do in these assays?
UUG fidelity: -2

What do the screens show for `C[C@H](CO)N1C[C@H](C)[C@@H](CN(C)Cc2ccc3c(c2)OCO3)Oc2c(NC(=O)c3ccc(-c4nccs4)cc3)cccc2C1=O`?
UUG fidelity: -3

Results for O=C(c1ccc(F)cc1)N1C[C@H]2[C@@H](c3ccccc31)[C@@H](CO)N2C(=O)c1ccc(F)cc1 ?
UUG fidelity: 7

Results for CCC(=O)Nc1ccc2c(c1)OC[C@@H](C)N(Cc1ccccc1)C[C@H](C)[C@@H](OC)CN(C)C2=O ?
UUG fidelity: -4

What do the screens show for `O=C(Nc1ccc(F)cc1)N1C[C@H]2[C@@H](c3ccccc31)[C@H](CO)N2C(=O)Cc1cccnc1`?
UUG fidelity: -14

How did C[C@@H]1CN([C@H](C)CO)C(=O)c2cc(NC(=O)Nc3ccc(C(F)(F)F)cc3)ccc2O[C@@H]1CN(C)Cc1ccncc1 do in these assays?
UUG fidelity: -6

Results for CO[C@@H]1CN(C)C(=O)c2cc(NS(=O)(=O)c3ccc(C)cc3)ccc2OC[C@H](C)N(C)C[C@@H]1C ?
UUG fidelity: 16

What do the screens show for `O=C(C[C@@H]1CC[C@H]2[C@@H](COC[C@H](O)CN2CCc2ccccc2)O1)NCc1ccc(Oc2ccccc2)cc1`?
UUG fidelity: 0

How did COc1ccccc1CNC(=O)C[C@@H]1CC[C@H]2[C@@H](COC[C@@H](O)CN2C(=O)Nc2ccc(Cl)cc2)O1 do in these assays?
UUG fidelity: 7

What do the screens show for `CN1c2ccc(-c3cccc(C#N)c3)cc2[C@@H]2[C@@H](CCN2S(=O)(=O)c2ccc(F)cc2)[C@@H]1CO`?
UUG fidelity: -22

How did CS(=O)(=O)N(CC1CCC1)C[C@H]1N[C@H](CO)[C@H]1c1ccccc1 do in these assays?
UUG fidelity: -13

Results for CS(=O)(=O)N1CCCCN2[C@@H](CO)[C@H](c3ccc(C4=CCCC4)cc3)[C@@H]2C1 ?
UUG fidelity: -2

Results for CCNC(=O)C[C@@H]1CC[C@@H]2[C@H](COC[C@@H](O)CN2Cc2ccccc2F)O1 ?
UUG fidelity: 4

How did C[C@@H]1CN([C@@H](C)CO)C(=O)c2cc(NS(=O)(=O)c3ccccc3)ccc2O[C@@H]1CN(C)C(=O)NC1CCCCC1 do in these assays?
UUG fidelity: 1

Results for CCC(=O)N1C[C@H](C)[C@@H](OC)CN(C)C(=O)c2cc(NS(C)(=O)=O)ccc2OC[C@@H]1C ?
UUG fidelity: 7

What do the screens show for `C[C@@H]1CN([C@H](C)CO)C(=O)Cc2cc(NC(=O)CCC(F)(F)F)ccc2O[C@@H]1CN(C)C(=O)Nc1ccc(F)cc1`?
UUG fidelity: 12

Results for Cc1ccc(S(=O)(=O)N2C[C@H](O)COC[C@H]3O[C@@H](CC(=O)NCc4ccc(Cl)c(Cl)c4)CC[C@@H]32)cc1 ?
UUG fidelity: 5

Results for CO[C@H]1CN(C)C(=O)c2ccc(NC(=O)C3CC3)cc2OC[C@@H](C)N(Cc2nccs2)C[C@H]1C ?
UUG fidelity: -19

Results for C[C@@H]1CN([C@H](C)CO)C(=O)c2cc(NC(=O)Nc3cccc4ccccc34)ccc2O[C@@H]1CN(C)CC1CCCCC1 ?
UUG fidelity: 9

How did CO[C@H]1CN(C)C(=O)c2cc(NC(=O)C3CCC3)ccc2OC[C@H](C)N(C(=O)CN(C)C)C[C@@H]1C do in these assays?
UUG fidelity: 8

How did C[C@H](CO)N1C[C@H](C)[C@H](CN(C)S(=O)(=O)c2cccs2)Oc2c(NC(=O)c3ccncc3)cccc2C1=O do in these assays?
UUG fidelity: 6

What do the screens show for `O=S(=O)(c1ccccc1)N1CCCCN2[C@H](CO)[C@@H](c3ccc(-c4ccccc4)cc3)[C@@H]2C1`?
UUG fidelity: 4

Results for C[C@@H]1CN([C@@H](C)CO)C(=O)c2cc(NC(=O)Nc3cccc4ccccc34)ccc2O[C@H]1CN(C)C(=O)Nc1ccccc1 ?
UUG fidelity: 4

Screening results as filed in PubChem BioAssay.

This is a subset (hit frequency here may not be typical).
